# Screening results: PubChem, National Center for Advancing Translational Sciences (NCATS)
# Vaccinia mCherry = qHTS for Stage-Specific Inhibitors of Vaccinia Orthopoxvirus: mCherry Reporter Primary qHTS; Vaccinia virus mCherry reporter infection, fluorescence; about a quarter of the inactives have no number; Potency, µM (series often up to 36.5 µM), for inactives: at the highest dose activity change, negative = inhibition, hits mostly inhibitors; 0.63% of 310,000 active; AID 720579, 2013; active = well fitted inhibition curve with a large enough effect; inconclusive = small, poorly fitted or top-dose-only effect; inactive = no such curve, though single readings can be large or run the other way; tested in A549 cells; also: nearly all actives have a fitted effect of over 35% in size; inactives centre near -10
# VACV Venus inh = qHTS for Stage-Specific Inhibitors of Vaccinia Orthopoxvirus: Venus Reporter Primary qHTS. Vaccinia virus Venus reporter expression, fluorescence. AID 720580, 2013. Potency, µM (series often up to 36.5 µM), for the others: at the highest dose activity change, negative = inhibition, hits mostly inhibitors. 0.46% of 330,000 active; active means well fitted inhibition curve with a large enough effect; inconclusive means small, poorly fitted or top-dose-only effect; inactive means no such curve, though single readings can be large or run the other way; tested in A549 cells; also: nearly all actives have a fitted effect of over 30% in size; inactives centre near -10
# * = called active by the depositor; i = inactive; ? = inconclusive; . = not tested or not shown; & = joins results of further samples; [ ] = remark or other dose. % is scaled to controls: 0 for no effect and ±100 for the full control effect; potency is read from the fitted curve at half-maximal effect.
SMILES,Vaccinia mCherry,VACV Venus inh
CNc1cncc(-c2cccc(OC)c2F)n1,i,-2%
CC1(C)Cc2nc3sc4c(=O)[nH]cnc4c3cc2CS1,.,-20%
Cc1[nH]cnc1CSCCN,.,7%
COC(=O)c1ccc(NC(=O)CCc2c(C)nc3c(c(C)nn3-c3ccc(C)cc3)c2C)cc1,-23%,-15%
COCCN1Cc2cc3cc(C)ccc3nc2SC1=Nc1ccc(OC)cc1,-9%,-11%
Cc1cc(C(=O)CSc2nn3c(=O)c(C(C)(C)C)nnc3s2)c(C)n1C1CC1,-7%,-8%
COc1ccccc1CCNC(=O)Cn1ccc2cc(S(=O)(=O)N3CCCCCC3)ccc21,-2%,-17%
O=C(NNC(=O)C1CCN(S(=O)(=O)c2c(Cl)cccc2Cl)CC1)c1ccccc1O,?,?
O=C1C2C(C(=O)N1CC1CCCO1)C1C=CC2C12CC2 (stereo unspecified),.,-2%
COc1cccc(C2(c3cccc(OC)c3)CC2C(=O)Nc2ccccc2Cl)c1 (stereo unspecified),?,-21%
O=C(CSc1nnc(-c2ccc(C(F)(F)F)cn2)o1)Nc1ccccc1Cl,i,-10%
CCn1nc(C)cc1C(=O)NCC1Cc2cccc(-c3cccnc3)c2O1 (stereo unspecified),-17%,-14%
COc1ccc(S(=O)(=O)NCCS(=O)(=O)N2CCN(c3ccccc3)CC2)cc1,-13%,-10%
CCOC(=O)Cc1c(C)nc2c(-c3ccccc3)c(C)nn2c1C,i,-29%
CCc1cccc(NC(=O)C2CCCN2C(=O)Nc2ccc(C)cc2)c1 (stereo unspecified),i,-8%
c1cncc(CSc2ccc(-c3ccc4c(c3)OCO4)nn2)c1,i,-11%
COC(=O)c1c(NC(=O)c2ccccc2N(C)S(=O)(=O)c2ccccc2)sc2c1CCCC2,.,?
COc1cccc(/C=C/c2onc(C)c2S(=O)(=O)N2CCC(C(=O)N3CCCCC3)CC2)c1,i,-10%
O=c1cnnc(SCc2ccc([N+](=O)[O-])cc2)[nH]1,-7%,-13%
O=C(C[C@@H]1C=C[C@@H](NC(=O)Nc2cccc(F)c2)[C@@H](CO)O1)NCC1CCCCC1,19%,0%
Cc1cccc(OCC(=O)Nc2nnc(S(=O)(=O)N3CCCCC3)s2)c1,7%,4%
COc1ccc(NC(=O)C(C)Sc2ccccc2)cc1 (stereo unspecified),.,-20%
Cc1ccccc1OCC(=O)NCC(=O)OCC(=O)c1ccc2ccccc2c1,-15%,3%
CCOc1ccc(NC(=O)Cn2c(=O)cc(C)c3c(C)nn(C)c32)cc1,-27%,-17%
O=C(COC(=O)Cc1c(Cl)cccc1Cl)NCC1CCCO1 (stereo unspecified),i,-6%

# The results go on:
SMILES,Vaccinia mCherry,VACV Venus inh
Cc1cc(NCc2ccco2)n2ncnc2n1,i,-10%
CC(=O)N1CCN(c2nc(N)c(C#N)c(CC#N)c2C#N)CC1,-12%,-11%
CC(C)(C)c1ccc(S(=O)(=O)NNC(=O)c2cc3ccccc3[nH]2)cc1,-17%,-27%
COc1ccccc1CN1CCNC(=O)C1CC(=O)O (stereo unspecified),i,-9%
CCc1cc(C(=O)N2CCOCC2)c(NC2=NS(=O)(=O)c3ccccc32)s1,-6%,1%
COC(=O)c1ccc(CNC(=O)CC[C@H]2O[C@@H](n3cc(C)c(=O)[nH]c3=O)C[C@@H]2O)cc1,8%,-1%
CCOC(=O)C1=C(CSc2nc(C)cc(C)c2C#N)OC(N)=C(C#N)C1c1ccccc1 (stereo unspecified),.,-8%
COc1ccc(N2CCN(C(=O)c3ccc(NS(=O)(=O)c4ccccc4)cc3)CC2)cc1,.,?
CN(C)C(=O)c1ccc(-c2nc(Nc3ccc(F)cc3)c3ccccc3n2)cc1,i,-12%
O=C(CCn1ccc([N+](=O)[O-])n1)Nc1nccs1,-10%,9%
COc1cccc(CNC(=O)c2c(C)oc3nc(C)nc(N4CCOCC4)c23)c1,i,-8%
Cc1ccc(-c2nc3ccc(Br)cn3c2Cc2ccsc2)cc1,5%,-13%
CC(=O)OC1COC(N2CCc3ccccc32)C(OC(C)=O)C1OC(C)=O (stereo unspecified),-12%,-8%
CC(=O)NCCC(=O)Nc1cc(F)ccc1C,.,-14%
COc1cc(OC)cc(C(=O)NCc2n[nH]c(=S)n2-c2ccccc2)c1,i,2%
COc1ccc(-c2cn3c(n2)CCC3)cc1,-17%,-11%
CN(CCC#N)C(=O)COC(=O)c1ccccc1OCc1ccccc1Cl,i,3%
CN(C)S(=O)(=O)c1ccc(N2CCCC2)c(C(=O)N2CCN(S(=O)(=O)c3ccccc3F)CC2)c1,-5%,-3%
CCOC(=O)N1CCN(C(=O)CN(Cc2ccccc2)S(C)(=O)=O)CC1,-2%,-1%
CC(=O)OCC=C1CCC2C3CCC4=CC(=O)CCC4(C)C3C(O)CC12C (stereo unspecified),-17%,-6%
CCNC(=O)N(C)C[C@H]1N[C@@](CC)(C(=O)OC)[C@H]2C(=O)N(C)C(=O)[C@@H]12,-14%,-6%
Cc1cc(C)cc(NC(=O)CSc2nnc(-c3ccncc3)o2)c1,-24%,-9%
O=c1c(Cc2c(F)cccc2Cl)c(O)ccn1C1CC1,-1%,6%
CCOC(=O)c1noc(C)c1C(=O)Nc1nc(C)cc(C)n1,-14%,0%
O=C(O)C1CC(=O)N(C2CCCCCC2)C1 (stereo unspecified),.,-14%

# Next part:
SMILES,Vaccinia mCherry,VACV Venus inh
COc1ccc(-c2nnn(CC(=O)N(CC(=O)NCCC(C)C)c3ccccc3)n2)cc1OC,-3%,-6%
Cc1ccc(C(=O)Nc2nc(C)c(C(=O)Nc3ccc4c(c3)CCC4)s2)cc1,i,-29%
CCOc1ccc(N2CC(C(=O)Nc3ccccc3N3CCCC3)CC2=O)cc1 (stereo unspecified),?,-24%
COc1cc(OC)cc(-c2nc3nc(C)c(CCC(=O)Nc4ccc(C)cc4C)c(C)n3n2)c1,-10%,6%
O=C1OC[C@@H]2CCCN2C(=O)[C@H](CC(=O)N(CCO)Cc2ccccc2)C/C=C\CC[C@@H]1Cc1ccc(F)cc1,i,-23%
COc1cccc(NC(=O)COc2ccc(S(=O)(=O)NC(C)C)cc2)c1,.,?
COc1cc(/C=N/N2CCN(C3c4ccccc4-c4ccccc43)CC2)cc(OC)c1O,-28%,-13%
Cc1ccccc1NC(=O)CCC(=O)N/N=C/c1cc([N+](=O)[O-])ccc1O,i,-6%
COc1cc(C(C)=O)ccc1OCC(=O)NCCCn1nc(C)cc1C,-6%,-8%
CN(C)c1cc(N2CCOCC2)nc(C#N)n1,-22%,-14%
CC(=O)Nc1ccc(NC(=O)CSc2ccc(-c3sc(C)nc3C)nn2)cc1,-18%,-7%
COc1cccc2cc(C(=O)Nc3cccnc3N3CCOCC3)c(=O)oc12,-18%,-6%
COc1ccc(C(=O)N2CC3(CC(c4cccc(NC(=O)COc5ccc(Cl)cc5)c4)=NO3)C[C@@H]2C(N)=O)cc1 (stereo partly specified),i,-22%
Cc1ccc(NC(=O)C2CCCO2)cc1[N+](=O)[O-] (stereo unspecified),i,?
CSc1ncc(C(=O)N2CCN(c3cccc(C(F)(F)F)c3)CC2)c(C)n1,-5%,-9%
Cc1ccc(C(=O)N2CCCC2)cc1S(=O)(=O)N1CCOCC1,i,-4%
Cc1ccc2oc(C(=O)N(C)CCC(O)c3ccccc3)c(C)c2c1 (stereo unspecified),?,-23%
COc1ccc(C)cc1Nc1n[n+](C)c(-c2c3ccccc3cc3ccccc23)s1,-18%,-2%
O=S(=O)(/N=C(/Nc1nccs1)c1ccc(F)cc1)c1ccccc1,-23%,-17%
NC(=O)CNC(=O)c1ccc(Cl)cc1,i,-10%
O=C(O)c1cc2cc(Cl)cc(Cl)c2oc1=O,i,-15%
COc1ccc(NC(=O)CN(C)CC(=O)Nc2ccccc2SC)cc1,-17%,-10%
CCOc1cc(N2CCOCC2)c(OCC)cc1NC(=O)COC(=O)CCOc1ccc(C(C)(C)C)cc1,i,-12%
O=C(c1ccc2ccccc2c1)N1CCN(c2ccc(C(F)(F)F)cn2)CC1,.,-23%
CC(C)[C@H](NC(=O)N1CC(=O)Nc2ccccc21)C(=O)N1CCC[C@H]1C(=O)O,-9%,-4%

# The results go on:
SMILES,Vaccinia mCherry,VACV Venus inh
Cc1sc(NC(=O)/C=C/c2ccco2)c(C(=O)OC(C)C)c1C,-15%,6%
COc1ccc(NC(=O)CSc2ccc(-c3sc(C)nc3C)nn2)cc1OC,?,-18%
O=C(CSc1n[nH]c(-c2cccs2)n1)N1CCOCC1,-14%,-7%
CCc1ccc(/C=C2\SC(=S)N(CCCC(=O)NCCCN3CCOCC3)C2=O)cc1,?,?
CCOc1ccc(CC(=O)N2CCN=C2SC)cc1,-11%,-5%
C/C(=N\NC(=O)CCCCCNC(=O)c1ccccc1)c1ccccc1O,-3%,-13%
Nc1ccc(C(=O)O)cc1[N+](=O)[O-],-1%,-9%
Oc1cc2ccccc2cc1-c1nnc2n1-c1ccccc1SC2,-8%[1.46 µM],-19%
Cc1ccc(N2C(=O)CS(=O)(=O)C23C(=O)N(Cc2ccc(Cl)cc2)c2ccccc23)cc1C (stereo unspecified),-5%,-2%
CC(=O)c1cc(CC=C(C)C)c(O)cc1O,-10%,-28%
C/C(=N\Nc1ccc(S(=O)(=O)N2CCCCC2)cn1)c1ccc(O)cc1,-6%,-13%
Cc1cc(-c2cccc([N+](=O)[O-])c2)nc2ccc3ccccc3c12,-7%,-3%
CCCCCCCCN1[C@@H](CC(=O)OCC)c2cc(F)ccc2S1(=O)=O,-7%&-3%,-27%&-29%
CC(=O)NCCOC(=O)c1nn(Cc2ccccc2)c(=O)c2ccccc12,-7%,4%
CC(=O)Nc1cc(-c2cccc(C(=O)NCCO)c2)cn2c(-c3ccc(F)c(Cl)c3)cnc12,?,-12%
O=C(COC(=O)c1cc(S(=O)(=O)N2CCOCC2)ccc1Cl)Nc1ccc(Cl)cn1,-6%,-6%
Cc1cc(C)cc(N=Cc2c(O)c3ccccc3oc2=O)c1,i,-12%
CC(C)(C)S(=O)N1Cc2cc(C(=O)N[C@@H]3CCN(Cc4ccccc4)C3)nc(-c3cccc(-c4cc5ccccc5o4)c3)c2[C@@H]1CCO (stereo partly specified),-1%,-15%
O=C(CCn1c(=S)[nH]c2cc3c(cc2c1=O)OCO3)NCc1cccc(Cl)c1,i,-1%
Cc1ccc(S(=O)(=O)N[C@@H](Cc2ccccc2)C(=O)N2CCC[C@@H]2C(=O)O)cc1,-15%,-13%
CCOc1ccccc1C1C(C(=O)OC)=C(N)OC2=C1C(=O)CCC2 (stereo unspecified),0%,-3%
O=C(c1cccc(Cl)c1)N1c2nc(-c3ccco3)nn2C2(CCCCC2)[C@@H]2CCCC[C@@H]21,-7%,-14%
CCN(CC)CCn1c(=N)n(CC(O)c2ccco2)c2ccccc21 (stereo unspecified),-3%,-15%
COc1ccccc1N1CCN(S(=O)(=O)c2cc3[nH]c(=O)c(=O)[nH]c3cc2C)CC1,-11%&-4%,-9%&0%
CC(C)C[C@H]1CNC(=S)N1C[C@H]1CCCN1C[C@H](Cc1ccc(O)cc1)N1C[C@H](Cc2ccc(O)cc2)N(CCc2ccccc2)C1=S,?,?

# Fetched by compound from the entries so far, 2 records:
SMILES,Vaccinia mCherry,VACV Venus inh
CC(=O)NCCOC(=O)c1nn(Cc2ccccc2)c(=O)c2ccccc12,-7%,4%
CCN(CC)CCn1c(=N)n(CC(O)c2ccco2)c2ccccc21 (stereo unspecified),-3%,-15%

# (listing goes on)
SMILES,Vaccinia mCherry,VACV Venus inh
CC(=O)COc1ccc2c(-c3ccccc3)cc(=O)oc2c1,i,-13%
COc1ccccc1NC(=O)N(Cc1ccc2c(c1)OCO2)C1CCN(Cc2ccccc2)CC1,-20%,-23%
O=C(CP(=O)(c1ccccc1)c1ccccc1)N/N=C/c1cc(Br)cc(Br)c1O,-10%,-4%
COc1ccc(C2CC(c3ccc(F)cc3)=NN2c2ccccc2)cc1OC (stereo unspecified),-18%,-10%
CC(C)C12CN3CC(C(C)C)(CN(C1)C3(C)C)C2=O,0%,-10%
O=C(C[n+]1cccc(CNC(=O)c2ccc(OC(F)F)cc2)c1)Nc1ccccc1Cl,-13%,-16%
CCC(CC)NC(=O)COC(=O)c1ccc(OCc2ccc(C(C)=O)cc2OC)c(OC)c1,i,-26%
Cc1cccc(C)c1NC(=O)NC1CC2CCC(C1)N2Cc1cccs1 (stereo unspecified),-13%,-4%
CCOC(=O)c1ccc(NC(=O)c2ccc(NC(=O)c3ccccc3)cc2)cc1,-3%,6%
Cn1ccc2c(-c3ccccc3F)cc3c(c21)C1CCC3C1 (stereo unspecified),i,-3%
COC(=O)c1ccccc1NC(=O)c1sc2nc(C)cc(C)c2c1NC(=O)c1ccccc1OC,-13%,-9%

# By substructure, those above with an NH in an aromatic ring (nine)
SMILES,Vaccinia mCherry,VACV Venus inh
CC1(C)Cc2nc3sc4c(=O)[nH]cnc4c3cc2CS1,.,-20%
Cc1[nH]cnc1CSCCN,.,7%
O=c1cnnc(SCc2ccc([N+](=O)[O-])cc2)[nH]1,-7%,-13%
CC(C)(C)c1ccc(S(=O)(=O)NNC(=O)c2cc3ccccc3[nH]2)cc1,-17%,-27%
COC(=O)c1ccc(CNC(=O)CC[C@H]2O[C@@H](n3cc(C)c(=O)[nH]c3=O)C[C@@H]2O)cc1,8%,-1%
COc1cc(OC)cc(C(=O)NCc2n[nH]c(=S)n2-c2ccccc2)c1,i,2%
O=C(CSc1n[nH]c(-c2cccs2)n1)N1CCOCC1,-14%,-7%
O=C(CCn1c(=S)[nH]c2cc3c(cc2c1=O)OCO3)NCc1cccc(Cl)c1,i,-1%
COc1ccccc1N1CCN(S(=O)(=O)c2cc3[nH]c(=O)c(=O)[nH]c3cc2C)CC1,-11%&-4%,-9%&0%
